# Source: PubChem (National Center for Advancing Translational Sciences (NCATS))
# N370S GC mod = inhibits or activates N370S mutant glucocerebrosidase | Potency, µM (series often up to 59.4 µM), inactives show top-dose activity change, negative = inhibition, usual class: inhibitors | P04062 | N370S GC spleen homogenate, 4MU-glucoside fluorescence | actives 0.092% (n = 330,000);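 further: 0% = full enzyme activity and -100% = no enzyme basal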
# FEN1 inh = human FEN1 inhibition. Recombinant FEN1 flap cleavage, fluorescence, 15 min. Potency, µM (series often up to 114 µM), for inactives: top-dose activity change, negative = inhibition, usual class: inhibitors. actives 0.35% (n = 390,000). AID 588795; further: nearly all actives have a fitted effect of over 65% in size
# Target sequence (P39748 whole entry, looked up): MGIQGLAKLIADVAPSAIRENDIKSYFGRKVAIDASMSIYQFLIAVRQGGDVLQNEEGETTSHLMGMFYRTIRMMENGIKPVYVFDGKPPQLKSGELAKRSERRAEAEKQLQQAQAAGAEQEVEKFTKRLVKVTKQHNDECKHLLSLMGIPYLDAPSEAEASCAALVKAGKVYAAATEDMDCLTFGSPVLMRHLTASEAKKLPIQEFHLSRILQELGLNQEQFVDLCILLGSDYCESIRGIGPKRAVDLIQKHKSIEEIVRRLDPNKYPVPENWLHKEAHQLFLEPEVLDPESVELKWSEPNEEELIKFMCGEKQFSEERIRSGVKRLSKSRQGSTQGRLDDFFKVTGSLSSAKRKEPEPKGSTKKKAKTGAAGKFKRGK
#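 With each library titrated from low to high concentration, compounds met 10 nM FEN1 for 15 min at room temperature before 50 nM substrate was added; readings at 0 and 15 min fed four-parameter Hill curve fits.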
# * = called active by the depositor; ? = inconclusive; · = no result given; & = joins results of further samples; [ ] = another dose, or the depositor's remark. The call rests on the fitted dose curve; in most records, active means well fitted curve in the direction sought with a large enough effect; inconclusive means small, poorly fitted or top-dose-only effect, or another doubt; inactive means no such curve, though single readings can be large; an effect the other way counts as inactive or inconclusive. Unless noted, on the % scale 0 is the no-effect control and ±100 the full control effect; potency means the concentration at half of the fitted maximal effect. The list is partial, and most or all hits are left out here.
No. | compound | N370S GC mod | FEN1 inh
1 | C=C(C)Cc1c(C)c(C#N)c2nc3ccccc3n2c1N1CCCCC1 | 23% | 5%
2 | CC(C)NC(=O)c1ccccc1NC(=O)Cc1ccc(Br)cc1 | 1% | 41%[activator]
3 | COc1ccc(C2CC(=O)c3cnc(N)nc3C2)c(OC)c1 (configuration not stated) | -8% | 1%
4 | CCC(=O)N(CCc1ccccc1)Cc1cc2cc3c(cc2[nH]c1=O)OCO3 | 2% | -4%
5 | CC(=O)NS(=O)(=O)c1ccc(NC(=O)c2cc(-c3ccc(C)cc3)nc3ccccc23)cc1 | 6% | -6%
6 | Cc1ccc2nc(SCC(=O)NCc3cccs3)[nH]c2c1 | -7% | -8%
7 | CC(C)c1cc(C(=O)Nc2cc(Br)ccc2O)no1 | 0% | 1%
8 | O=C(CCc1nnc2ccc(N3CCC4(CC3)OCCO4)nn12)Nc1ccc(F)cc1 | -2% | 11%
9 | Cc1ccc(C)c(SCC(=O)NCc2ccco2)c1 | 15% | -3%
10 | Cc1nnc(Nc2ccc(C(=O)NCCO)cc2)c2ccccc12 | 4% | -7%
11 | O=C(COC(=O)Cc1cccc(C(F)(F)F)c1)Nc1ccc2c(c1)OCCO2 | 3% | 4%
12 | NC(=O)NC(c1ccccc1)c1cccc2ccccc12 (configuration not stated) | -1% | -14%
13 | CCOCCCNC(=O)Cn1cnc2sc(C)c(S(=O)(=O)N3CCN(c4ncccn4)CC3)c2c1=O | 8% | 5%
14 | Clc1ccc(C(c2nnnn2C2CCCCC2)N(Cc2cccnc2)Cc2ccco2)cc1 (configuration not stated) | 9% | 2%
15 | Cc1cc(C)c(C#N)c(SCC(O)COc2ccc(Br)cc2)n1 (configuration not stated) | 6% | 0%
16 | O=C(COC(=O)CNS(=O)(=O)c1cccc(Br)c1)NC(=O)Nc1ccc2c(c1)OCCO2 | -2% | 2%
17 | COCCNC(=O)c1ccc(N2CC3CC(C2)c2cccc(=O)n2C3)c(NC(=O)c2c(F)cccc2F)c1 (configuration not stated) | 0% | -4%
18 | COc1cc(/C=C/C(=O)O)cc(S(=O)(=O)Nc2ccccc2Oc2ccccc2)c1OC | 9% | -9%
19 | COc1ccc(-n2nc3c(N4CCCC(C(=O)NCCc5ccccc5C)C4)nnc(C)c3c2C)cc1 (configuration not stated) | · | 10%
20 | CCOC(=O)Cc1csc(SCC(=O)NC2CCS(=O)(=O)C2)n1 (configuration not stated) | · | -1%
21 | CCOC(=O)c1cc(NC(=O)CN2CCCC2)cc(C(=O)OCC)c1 | ? | 2%
22 | Cc1onc(-c2ccccc2)c1C(=O)OCC(=O)NCc1ccc(F)cc1 | -7% | -1%
23 | CN(c1ccccc1C(=O)Nc1ccc2c(c1)OCCO2)S(C)(=O)=O | -6% | 3%
24 | CCOC(=O)C1=C(C)NC(=S)N(C(C)=O)C1c1ccccc1 (configuration not stated) | 6% | -16%

# Two of the compounds above, with two lines to a compound.
# Each structure is followed by: N370S GC mod, FEN1 inh
[2] CC(C)NC(=O)c1ccccc1NC(=O)Cc1ccc(Br)cc1
→ 1%, 41%[activator]
[3] COc1ccc(C2CC(=O)c3cnc(N)nc3C2)c(OC)c1 (configuration not stated)
→ -8%, 1%

# (list continues)
No. | compound | N370S GC mod | FEN1 inh
25 | CC(C)C1Cc2c(sc3[nH]c(=S)n(Cc4ccccc4)c(=O)c23)CO1 (configuration not stated) | 5% | 5%
26 | CC(C)(C)NCC(O)c1cc(O)cc(O)c1 (configuration not stated) | -5%&1%&10% | -7%
27 | CCP(=O)(CC)c1cccc(N)c1 | 5% | -3%
28 | COc1ccc(/C=C/c2ccccc2)cc1C1C2C=CCCC2(C)C(=O)N1Cc1ccccc1 (configuration not stated) | 4% | 3%
29 | Cc1cccc(-c2nc3ccccc3c(=O)n2NC(=O)c2ccc([N+](=O)[O-])c(C)c2)c1 | -12% | -5%
30 | COC(=O)c1ccc(NC(=O)CNC(=O)c2sc3ccccc3c2Cl)cc1 | · | 13%
31 | Cc1ccc(S(=O)(=O)NCC(=O)OCC(=O)Nc2cccc(S(=O)(=O)NC3=NCCCCC3)c2)cc1 | 10% | -4%
32 | Cc1cc(-n2nc(C)cc2C)n2nc(C)c(-c3ccc(Cl)cc3)c2n1 | 3% | -4%
33 | COc1ccc(-c2[nH]c(-c3ccc(SC)cc3)nc2SCC(=O)Nc2nccs2)cc1 | 0% | -7%
34 | COc1ccccc1CNS(=O)(=O)c1cc(C(=O)NCc2ccccn2)c(Cl)cc1Cl | -9% | 2%
35 | Fc1ccc(CNc2cc(-c3ccccc3)nc3nncn23)cc1 | · | 10%
36 | COc1ccc(N=C2NC(=O)CS2)c([N+](=O)[O-])c1 | -8% | 0%
37 | COC(=O)c1cc2oc(C)cc2n1Cc1ccc(Cl)cc1 | · | -10%
38 | CC(=O)Nc1ccc(NC(=O)C(C)n2nc(C)c([N+](=O)[O-])c2C)cc1 (configuration not stated) | 5% | -7%
39 | CN(CC(=O)Nc1ccc(F)c(F)c1F)C(=O)c1ccc(=O)[nH]c1 | 4% | -4%
40 | COc1cc(NC(=O)CCc2c(C)nc3nc(-c4cc(OC)cc(OC)c4)nn3c2C)cc(OC)c1 | · | -14%
41 | Cc1ccc(NC(=O)c2ccc(=O)[nH]c2)cc1S(=O)(=O)N1CCCCCC1 | · | 1%
42 | O=C(CCS(=O)(=O)Cc1ccccc1)Nc1ncc([N+](=O)[O-])s1 | -3% | 1%
43 | COc1cccc(CC(=O)Nc2ccc3nc(N4CCC(C)CC4)cc(C)c3c2)c1 | · | -22%
44 | COCCNc1nc2c(S(=O)(=O)c3cc(C)ccc3C)nnn2c2ccccc12 | 26% | 5%
45 | CCOc1ccc2oc(C(=O)NCc3ccccc3CN3CCCC3)c(C)c2c1 | · | -19%
46 | COc1ccc(O)c(-c2c(-c3ccc(Cl)cc3)n[nH]c2C)c1 | -17% | -2%
47 | CCOc1ccccc1NC(=O)Nc1nnc(N(C)Cc2ccccc2)s1 | · | -8%
48 | Nc1nc(CN2CCN(C(=O)c3ccco3)CC2)nc(Nc2cccc(Cl)c2)n1 | -3% | 4%

# Structural class: the compounds so far with fluorine
No. | compound | N370S GC mod | FEN1 inh
8 | O=C(CCc1nnc2ccc(N3CCC4(CC3)OCCO4)nn12)Nc1ccc(F)cc1 | -2% | 11%
11 | O=C(COC(=O)Cc1cccc(C(F)(F)F)c1)Nc1ccc2c(c1)OCCO2 | 3% | 4%
17 | COCCNC(=O)c1ccc(N2CC3CC(C2)c2cccc(=O)n2C3)c(NC(=O)c2c(F)cccc2F)c1 (configuration not stated) | 0% | -4%
22 | Cc1onc(-c2ccccc2)c1C(=O)OCC(=O)NCc1ccc(F)cc1 | -7% | -1%
35 | Fc1ccc(CNc2cc(-c3ccccc3)nc3nncn23)cc1 | · | 10%
39 | CN(CC(=O)Nc1ccc(F)c(F)c1F)C(=O)c1ccc(=O)[nH]c1 | 4% | -4%

# (continued)
No. | compound | N370S GC mod | FEN1 inh
49 | CC(OC(=O)CCCOc1ccccc1)C(=O)Nc1ccc(Cl)cn1 (configuration not stated) | 1% | -16%
50 | Cc1cc(C)n2[nH]c(=O)c(N=Nc3cccc(Cl)c3)c2n1 | -10% | -4%
51 | CCOC(=O)c1ccc(Nc2nc(=O)c3cccnc3s2)cc1 | -1% | 7%
52 | CC1CCCC(NC(=O)CCNC(=O)c2ccc([N+](=O)[O-])cc2)C1C (configuration not stated) | -22% | -16%
53 | CCNc1nc(NC(C)(C)C)nc(N(C#N)CC)n1 | 11% | -13%
54 | CC(NC(=O)c1csc2ccccc12)C1CCCO1 (configuration not stated) | 0% | -8%
55 | CCN(C[C@H]1N[C@@](C)(C(=O)OC)[C@H]2C(=O)N(C)C(=O)[C@@H]12)C(=O)Nc1ccc(F)cc1 | · | -3%
56 | COc1ccc(-c2cccc(NS(=O)(=O)c3cc(C)c(OC)c(C)c3C)c2)nn1 | · | -4%
57 | CN(c1ccc(C(=O)NCc2ccc3c(c2)OCO3)cc1)S(C)(=O)=O | 4% | 11%
58 | CC(C)c1ccc(NC2CCCN(C(=O)c3cnsn3)C2)cc1 (configuration not stated) | 4% | 1%
59 | O=C(CCNC(=O)c1ccc(Br)cc1)NCCCN1CCOCC1 | · | -7%
60 | COc1ccc(CNC(=O)COCc2cc(-c3ccc4c(c3)OCO4)on2)cc1 | · | -3%
61 | O=C(CSc1nncn1-c1ccccn1)Nc1cccc(Cl)c1 | -16% | -1%
62 | O=[N+]([O-])c1cccc(-n2nnnc2CN2CCCC2)c1 | 7% | -1%
63 | Nc1c([N+](=O)[O-])cc(-c2cnc[nH]2)cc1[N+](=O)[O-] | 1% | 12%
64 | Cc1ccc(NC(=S)N(Cc2ccc(Cl)cc2)Cc2ccc(C(=O)O)cc2)cc1Cl | 9% | -17%
65 | CSc1nc2ccccc2n1CC(=O)Nc1c(C)n(C)n(-c2ccccc2)c1=O | 1% | 9%
66 | O=C(CCn1c(=O)oc2ccccc21)NCCCN1CCOCC1 | -14% | -5%
67 | Cc1cc(NC(=O)c2cc(S(=O)(=O)N3CCCCC3)ccc2C)n(-c2ccccn2)n1 | -1%[2.35 µM] | -4%
68 | Cc1ccc(N(CC(O)CN2C(=O)NC(C)(C)C2=O)S(=O)(=O)c2ccc(C)cc2)cc1 (configuration not stated) | -13% | -2%
69 | Cc1ccc(S(=O)(=O)N2CCOCC2)cc1C(=O)Nc1ccccc1F | -2% | 0%
70 | CC1=C(C(=O)NCc2ccccc2Cl)C2(CCCCCC2)OC1=O | · | -10%
71 | COc1ccc(CCN2CC(C(=O)N(C)CC(=O)Nc3ccc(Cl)c(C(F)(F)F)c3)CC2=O)cc1OC (configuration not stated) | -21% | 3%
72 | CCc1cc2ccc(C)cc2nc1SCC(=O)Nc1cc(OC)c(OC)cc1C(=O)O | 12% | ?
73 | Clc1ccc2c(c1)c1ccccc1n2CN1CCOCC1 | -18% | -21%
74 | O=C(Cn1c(=O)n(-c2ccccc2)c(=O)c2sc3ccccc3c21)NC1CCCC1 | · | 3%
75 | O=C1NC[C@@H](Cc2cccc3ccccc23)N(CC2(c3ccccc3)CC2)C1=O | -3% | -4%
76 | COc1ccc(Cn2c(SCC(=O)NCc3ccco3)nc3ccsc3c2=O)cc1 | -1% | -13%
77 | COC(=O)c1c(N2C(=O)[C@H]3[C@@H](C2=O)[C@]2(C(=O)Nc4c(C)cc(C)cc42)N2CCC[C@@H]32)sc(C)c1C | 5% | -27%
78 | O=C(NCC1CCCN1S(=O)(=O)c1cccs1)C(=O)Nc1cccc(F)c1 (configuration not stated) | 1% | -11%
79 | Cc1ccc(-c2csc3ncnc(SCC(=O)Nc4nnc(C)s4)c23)cc1 | -1% | 5%
80 | COCCCN1C(=O)c2ccc(C(=O)NCc3ccco3)cc2C1=O | 10% | -11%

# Four entries from above, arranged by SMILES length, low to high.
No. | compound | N370S GC mod | FEN1 inh
20 | CCOC(=O)Cc1csc(SCC(=O)NC2CCS(=O)(=O)C2)n1 (configuration not stated) | · | -1%
22 | Cc1onc(-c2ccccc2)c1C(=O)OCC(=O)NCc1ccc(F)cc1 | -7% | -1%
28 | COc1ccc(/C=C/c2ccccc2)cc1C1C2C=CCCC2(C)C(=O)N1Cc1ccccc1 (configuration not stated) | 4% | 3%
31 | Cc1ccc(S(=O)(=O)NCC(=O)OCC(=O)Nc2cccc(S(=O)(=O)NC3=NCCCCC3)c2)cc1 | 10% | -4%

# New compounds follow.
No. | compound | N370S GC mod | FEN1 inh
81 | CC(=O)[C@]1(O)CCC2C3C=C(Cl)C4=CC(=O)C5CC5[C@@]4(C)C3CC[C@]21C (some centres not stated) | 17% | ·
82 | Cc1cc(C)cc(N(CC(=O)NC2CCCC2)C(=O)CCC(=O)Nc2cc(C)on2)c1 | -5% | 3%
83 | CCOc1cc(/C=N/NC(=O)COc2ccccc2C)ccc1OC(=O)c1cccs1 | -16% | -7%
84 | Cc1onc(-c2ccccc2)c1C(=O)NC(=S)Nc1sc2c(c1C#N)CCCC2 | 19% | -15%
85 | COc1cc(C(=O)NCC(=O)N/N=C/c2ccc(-c3cccc([N+](=O)[O-])c3)o2)cc(OC)c1OC | -20% | -2%
86 | COc1cccc2c(=O)n(CC(=O)N3CCCc4ccccc43)ccc12 | 1% | -5%
87 | COc1ccc(NC(=O)CSc2nnc(Cc3cccn3C)n2-c2ccc(C)cc2)cc1OC | -1% | -5%
